Screening data from PubChem BioAssay.
CDC25B-CDK2 inh: human CDC25B-CDK2/CyclinA binding inhibition; HTRF CDC25B-CDK2/CyclinA binding, anti-His/anti-Flag; stronger effect = higher value; AID 1259370; z-score (test concentration not listed); hit rate 0.72% among 94,000;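 also: score is relative to mean and SD of negative controls; strong numbers were not always called active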
TAR Tat displ: HIV-1 TAR-Tat binding disruption | HIV-1 TAR RNA, Tat peptide displacement FRET; stronger effect = higher value | z-score (no concentration beside the values) | hit rate 0.6% among 100,000 | AID 1259389;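 also: score is relative to mean and SD of negative controls; some compounds called inactive have numbers as strong as hits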
Starred values were filed as active, the others as inactive; · = not tested or not shown.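 The calls were made as follows: active = z-score from 3 up in half or more of its runs; inactive = the rest.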

Screens in order – CDC25B-CDK2 inh | TAR Tat displ
> O=C(CSc1nc2ncccc2[nH]1)N1CCCC1
→ · | 0.18
> CC1CC(=O)c2cnc(Nc3ccccc3)nc2C1 (stereo not drawn)
→ -0.04 | 0.76
> COc1cccc2c1OC(c1cccc(OC)c1OC)N1N=C(c3ccccc3O)CC21 (stereo not drawn)
→ -1.5 | -2.9
> Cc1cc(C)cc(OCCSc2nc(-c3cccs3)nc3cc(=O)[nH]n23)c1
→ · | -0.19
> O/N=C/c1ccc(-c2ccc(F)cc2F)o1
→ -1.5 | ·
> O=C(CN1C(=O)c2ccccc2S1(=O)=O)Nc1ccc(F)cc1F
→ -1.9 | 3.4
> COc1cnc(CSc2nnnn2C)cc1OCC(N)=O
→ · | 2.6
> CC1CCN(c2ccc3nnc(CCC(=O)NC(C)CCc4ccco4)n3n2)CC1 (stereo not drawn)
→ · | -0.67
> C=CCn1c(CSc2nc3sc(C)c(C)c3c(=O)[nH]2)nnc1SC/C=C/c1ccccc1
→ -3.2 | ·
> COc1ccccc1-c1nc(SCC(=O)c2ccc(Br)cc2)n[nH]1
→ -0.98 | -0.98
> C=CCN(Cc1nc(-c2ccc(OC)c(OC)c2)no1)C(=O)NCC
→ -1.4 | 0.22
> O=c1c2ccccc2c2ccccc2c(=O)n1-c1ccc(F)c(F)c1
→ 0.94 | ·
> CN(Cc1cc(=O)n2ccsc2n1)c1ccc(Cl)cc1
→ · | -0.71
> Cn1c(=O)c(=O)n(C)c2cc(S(=O)(=O)CCC(=O)N3CCN(C4CCCC4)CC3)ccc21
→ 2 | -0.88
> CCCCCSCc1ccc2oc(C(=O)O)cc2c1
→ -0.43 | 0.01
> CC(=O)Nc1ccc(-c2cn3c(n2)SCC3)cc1
→ -1 | ·
> CC1CCN(c2nc(NC3CCCCC3)nc(N)c2[N+](=O)[O-])CC1
→ · | 0.1
> COc1ccc(-c2nsc3c(N4CCNCC4)ncnc23)cc1
→ -1 | -0.65
> O=C(Nc1cc(F)c2nc(N3CCCC3)ccc2c1)c1ccco1
→ · | -4.2
> COc1ccc(S(=O)(=O)N2CCN(c3ccc(Cl)cc3)CC2)cc1
→ -1.7 | -0.13
> Cn1ncc2c(NCCc3cccs3)nc(N3CCN(C4CCCCC4)CC3)nc21
→ · | 1
> O=C(CSc1nc2ncccc2o1)Nc1ccc2c(c1)OCO2
→ · | 0.66
> O=C(Nc1nnc(Cc2nc3ccccc3[nH]2)s1)c1ccc2c(c1)OCO2
→ 3.1 | -3
> O=S(=O)(Nc1ccc(F)cc1)c1ccc(N2CCCCS2(=O)=O)cc1
→ · | 1.1
> O=C(O)C#Cc1cccc2ccccc12
→ -1.1 | ·
> O=C(COC(=O)CCC1=NS(=O)(=O)c2ccccc2N1)Nc1ccc(F)cc1
→ · | 0.71
> CN(CCO)CC(O)Cn1c2ccc(Cl)cc2c2cc(Cl)ccc21 (stereo not drawn)
→ -2.2 | 1.6
> CCn1cc(C2=NOC(C(=O)Nc3c(C)n(C)n(-c4ccccc4)c3=O)C2)c(C)n1 (stereo not drawn)
→ -1.1 | -1.3
> O=C(NCc1ccco1)C1CCN(c2nn3c(=O)c4c(nc3s2)CCCC4)CC1
→ · | 3.1
> CC(O)CN1C(=O)c2cccc3cccc(c23)C1=O (stereo not drawn)
→ -1.8 | ·

Profiles as entered above. Order of values: CDC25B-CDK2 inh | TAR Tat displ
Shown for CC1CCN(c2ccc3nnc(CCC(=O)NC(C)CCc4ccco4)n3n2)CC1 (stereo not drawn) : · | -0.67
Shown for O/N=C/c1ccc(-c2ccc(F)cc2F)o1 : -1.5 | ·
Shown for CCn1cc(C2=NOC(C(=O)Nc3c(C)n(C)n(-c4ccccc4)c3=O)C2)c(C)n1 (stereo not drawn) : -1.1 | -1.3
Shown for COc1ccccc1-c1nc(SCC(=O)c2ccc(Br)cc2)n[nH]1 : -0.98 | -0.98
Shown for COc1cnc(CSc2nnnn2C)cc1OCC(N)=O : · | 2.6

The results go on.
Screens in order – CDC25B-CDK2 inh | TAR Tat displ
> COc1ccc(C(=O)OCc2cc(=O)n3nc(CC(C)C)sc3n2)cc1OC
→ · | 0.81
> Cc1noc(/C=C/N2CCOCC2)c1S(=O)(=O)N(C)CC(=O)NC1CCCCC1
→ · | 2.1
> CCCCC(=O)Nc1nnc(S(=O)(=O)N2CCCCC2)s1
→ -2 | 3.3
> Oc1ccccc1/C=N/Nc1nc2c(Cl)cc(Cl)cc2s1
→ -0.09 | ·
> Cc1nc2sc(C(c3ccc(Cl)cc3)N3CCCCC3)c(O)n2n1 (stereo not drawn)
→ -1.6 | ·
> CC1C(=O)C(C)C(c2ccc(N(C)C)cc2)NC1c1ccc(N(C)C)cc1 (stereo not drawn)
→ -0.73 | ·
> Cc1c(C)n(CCN(C)C)c2ccc(C(=O)OCCN(C)C)cc12
→ -1.1 | ·
> CN(C)c1ccc(C(=O)N2N=C3CCCCCC3C2(O)C(F)(F)F)cc1 (stereo not drawn)
→ -3.3 | ·
> O=C(CSc1nccn(-c2cccc(F)c2)c1=O)c1ccc(F)cc1
→ · | 0.25
> Cn1c(COc2ccc(Cl)cc2)nc2ccccc21
→ -0.17 | -0.38
> CCOC(=O)COc1ccc2c(c1)c(C(=O)OCC)c(C)n2-c1ccc(OC)cc1
→ 0 | ·
> CCc1nn(CC(=O)N2CCCC2)c(=O)c2cc3sccc3n12
→ -0.85 | 0.17
> O=c1c(Cl)c(N2CCOCC2)cnn1-c1nc2ccccc2s1
→ -0.86 | ·
> CCC(C)NC(=O)c1cc(-c2ccccn2)nc2ccccc12 (stereo not drawn)
→ -0.36 | ·
> O=C1c2ccccc2C(=O)N1c1ccc(-n2ccc(C(F)(F)F)n2)cc1
→ -0.85 | ·
> Cc1ccc(C2/C(=C(\O)c3ccc(F)cc3)C(=O)C(=O)N2CCCN2CCOCC2)cc1 (stereo not drawn)
→ -1.4 | -0.28
> CCOc1cccc(=O)c2c(C)n(CC(=O)c3ccccc3)c(C)c12
→ -1 | -4
> N#Cc1nc(/C=C/c2ccc(Cl)cc2)oc1N1CCN(C(=O)c2ccco2)CC1
→ -1.1 | 0.2
> O=C(NCCCN1CCCCC1)c1ccc2c(c1)NC(=O)C(N1CCOCC1)S2 (stereo not drawn)
→ -2 | ·
> CCCc1nccn1S(=O)(=O)c1cc(Br)c(C)cc1OC
→ -0.19 | 0.65
> Cc1ccc(CN(Cc2cc(=O)c3cc(C)ccc3[nH]2)CC(C)C)cc1
→ · | 0.46
> Cc1nc2scc(C)n2c(=O)c1S(=O)(=O)Nc1ccc(Oc2ccc(Cl)cc2)cc1
→ -1.2 | 0.71
> Cc1ccc(Nc2ncnc(-n3cccc3)n2)cc1Cl
→ 0.39 | ·
> COC(=O)C1C2CCC(C2)C1C(=O)OCC(=O)c1ccc(Br)cc1 (stereo not drawn)
→ -0.24 | 0.88
> CCOC(=O)c1cc(=O)c2ccc(O)cc2o1
→ 0.08 | ·
> COC(=O)c1[nH]nc2c1C(=O)N(c1ccccc1C(F)(F)F)C2=O
→ 1.7 | ·
> CCc1nnc(NC(=O)Cn2cnc3onc(C)c3c2=O)s1
→ · | 1.9
> CCCOc1ccc(-c2cccc(NS(=O)(=O)c3ccc(CC)cc3)c2)nn1
→ · | 0.65
> O=C(CSc1nnc(COc2ccccc2)o1)N1CCN(c2ccccc2)CC1
→ -2.9 | ·
> COCCCNc1c(-c2ccc(Cl)cc2)c(=O)c1=O
→ · | 0.96
> Cc1ccc(C(=O)C(C)OC(=O)c2cccc(N3C(=O)c4cccc([N+](=O)[O-])c4C3=O)c2)cc1 (stereo not drawn)
→ 1.4 | ·
> Cc1ccc(S(=O)(=O)[C@H]2CS(=O)(=O)C[C@@H]2NCc2cccnc2)cc1
→ -2 | 1.9
> FC(F)(F)COc1ccc(OCC(F)(F)F)c(-c2n[nH]c(=S)o2)c1
→ -3.3 | ·
> CCOC(=O)c1c(NC(=O)CS(=O)(=O)c2ccc(Cl)cc2)sc2c1CCCC2
→ · | 0.53
> CCS(=O)(=O)N1CCCc2ccc(NS(=O)(=O)c3ccc(OC)cc3OC)cc21
→ · | -0.6
> CC(C)(O)C#Cc1ccc(CO)cc1
→ 0.07 | ·
> Nc1nnc(SCc2nnc(-c3ccccc3)o2)s1
→ · | 1.3
> N#C/C(=C\Nc1cc(C(F)(F)F)cc(C(F)(F)F)c1)S(=O)(=O)Cc1ccc(Cl)cc1
→ -0.64 | ·
> COc1ccc2nc3oc(C(=O)Nc4nccs4)cc3cc2c1
→ · | 0.32
> Cc1ccc(-c2nnc3c4cnn(C)c4ncn23)cc1
→ -0.14 | -1.1
> COc1ccc2c(c1)CC(NC(=O)NCCc1ccco1)CO2 (stereo not drawn)
→ · | 1.1
> CC(C)Cc1cc(-c2ccccc2)c(C#N)c(N)n1
→ -2.2 | 0.29
> O=C(Nc1ccc2c(c1)OCO2)C1CCCCN1S(=O)(=O)c1ccc(F)cc1 (stereo not drawn)
→ -1.1 | -1.4
> CCOC(=O)Cc1c(C)nc2c(C#N)c(C)[nH]n2c1=O
→ 0.36 | -0.28
> O=c1c(S(=O)(=O)c2cccc(F)c2)c[nH]c2ccc(F)cc12
→ -0.38 | 0.15
> COC(=O)c1c(OC)ccc(-n2cccc2)c1OC
→ -0.78 | ·
> COc1cccc(C(=O)c2c(N)c(-c3nc(-c4ccccc4)cs3)c3ccccn23)c1
→ -1.4 | 3.8
> CC(C)S(=O)(=O)/C(C#N)=C/c1cnc[nH]1
→ -2 | ·
> COc1ccc(N2CCN(C(=O)c3cc4n(n3)C(C(F)(F)F)CC(c3ccco3)N4)CC2)cc1 (stereo not drawn)
→ 0.16 | 0.6
> COc1ccc(OC)c(C2Oc3c(OC)cccc3C3CC(c4cccnc4)=NN32)c1 (stereo not drawn)
→ -0.54 | ·
> C=CCn1c(SCc2nc(-c3ccccc3)no2)nc2cc3c(cc2c1=O)OCO3
→ · | 2.4
> Cc1ccc(S(=O)(=O)CCN2CCN(c3ccc(C(F)(F)F)cc3[N+](=O)[O-])CC2)cc1
→ 0.68 | ·
> Fc1ccc(Nc2ncnc3c2nc2n3CCCC2)c(F)c1
→ · | 0.49
> Cc1ccc(NS(=O)(=O)c2cn(C)cn2)cc1C
→ · | 1.4
> CN(CCNC(=O)NCc1noc2ccccc12)C1CCCCC1
→ · | 0.54
> COc1ccc(-c2noc(-c3nnn(-c4cccc(F)c4)c3N)n2)cc1
→ 3 | 0.85
> Cc1cc(N2CCn3c(nc4ccccc43)C2)ccc1NS(=O)(=O)c1ccccc1
→ -3 | -0.62
> O=S(=O)(NCCc1csc2nc(-c3ccccc3)nn12)c1ccc(Oc2ccccc2)cc1
→ · | 0.85
> COc1cc(N2CCn3c(nc4cc(Cl)ccc43)C2)ccc1N
→ 0.8 | -7.9
> O=C(c1ccccc1Cl)N1CCC(n2cccc2)CC1
→ -0.77 | ·

Reprinted from the part before: 2 entries; new compounds follow.
Screens in order – CDC25B-CDK2 inh | TAR Tat displ
> COc1cc(N2CCn3c(nc4cc(Cl)ccc43)C2)ccc1N
→ 0.8 | -7.9
> O=C(c1ccccc1Cl)N1CCC(n2cccc2)CC1
→ -0.77 | ·
> CCCCN1C(=O)C(O)(CC(=O)c2ccc(OCC)cc2)c2cc(Br)ccc21 (stereo not drawn)
→ 2.8 | 0.77
> O=C1CCSc2ccc(S(=O)(=O)Nc3ccc(F)cc3)cc2N1
→ · | 0.69
> Clc1ccc(-n2cc(-c3ccccc3)c3c(NCCN4CCOCC4)ncnc32)cc1
→ · | 0.05
> Brc1ccc(OCc2nc(-c3cccs3)no2)cc1
→ -1.9 | 1.1
> O=c1c2cc3c(cc2n(Cc2cccc(F)c2)c(=O)n1Cc1nc(-c2ccccc2)no1)OCO3
→ · | 0.37
> O=C(N/C=C/c1ccco1)Nc1cc(C(F)(F)F)cc(C(F)(F)F)c1
→ -1.6 | ·
> NC(Cc1c[nH]c2ccc(OCc3ccccc3)cc12)C(=O)O (stereo not drawn)
→ -2.2 | -2.4
> CSc1ncnc2c1nnn2Cc1ccccc1
→ -0.85 | ·
> Fc1ccc(-n2cc(-c3ccccc3)c3c(NCc4ccc5c(c4)OCO5)ncnc32)cc1
→ -0.95 | 0.9
> Cc1ccc(-c2nc3ccccn3c2Nc2ccc3c(c2)OCCO3)o1
→ -0.36 | ·
> Cc1c(C(=O)N2CCCC2)c(S(=O)(=O)N(Cc2ccco2)C2CCCCC2)c(C)n1C
→ · | 0.76
> CCOC(CC(=O)NNC(=O)c1ccc(C(F)(F)F)cc1)OCC
→ -2.5 | ·
> CCCn1c(CNC(=O)c2cccs2)nc2ccccc21
→ -1.3 | ·
> CCOC(=O)c1c(C)[nH]c(C)c1S(=O)(=O)NCc1ccccn1
→ · | 1.6

Entries shown so far that have a nitro group on carbon (3):
Screens in order – CDC25B-CDK2 inh | TAR Tat displ
> CC1CCN(c2nc(NC3CCCCC3)nc(N)c2[N+](=O)[O-])CC1
→ · | 0.1
> Cc1ccc(C(=O)C(C)OC(=O)c2cccc(N3C(=O)c4cccc([N+](=O)[O-])c4C3=O)c2)cc1 (stereo not drawn)
→ 1.4 | ·
> Cc1ccc(S(=O)(=O)CCN2CCN(c3ccc(C(F)(F)F)cc3[N+](=O)[O-])CC2)cc1
→ 0.68 | ·

Part of the list above, with each value named.
> CCc1nnc(NC(=O)Cn2cnc3onc(C)c3c2=O)s1
- CDC25B-CDK2 inh = ·
- TAR Tat displ = 1.9

> Cc1nc2sc(C(c3ccc(Cl)cc3)N3CCCCC3)c(O)n2n1 (stereo not drawn)
- CDC25B-CDK2 inh = -1.6
- TAR Tat displ = ·
